FGF22 binding: binders of human FGF22 protein, primary screen, FGF22 synaptogenesis inhibitor project, biophysical, thermal shift, single point | Fibroblast growth factor 22 (Homo sapiens), Q9HCT0 | recombinant FGF22 thermal shift, SYPRO orange fluorescence; percent of sucrose octasulfate shift, DMSO zero | calls only at 9.99 µM | 340,000 compounds, 1.5% hits;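 active means melting point raised past a set limit in the mean and every replicate; three in four hits are not shown here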
Target sequence (Q9HCT0 whole entry, looked up): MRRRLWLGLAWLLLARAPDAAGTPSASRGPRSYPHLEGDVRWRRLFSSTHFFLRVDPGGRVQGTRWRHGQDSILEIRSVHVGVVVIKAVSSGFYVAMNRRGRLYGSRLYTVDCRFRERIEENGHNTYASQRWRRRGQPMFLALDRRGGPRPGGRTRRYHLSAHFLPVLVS
rRNA inh HTS: reduced GFP signal of wild-type E. coli, primary screen, bacterial rRNA inhibitor project, GFP/RFP fluorescence, OD600, single point | E. coli WT GFP vs humanized-ribosome RFP mutants, 24 h; active compounds read low; DMSO median 0, no signal -100 | GFP signal change (wild-type ribosome), % (no concentration beside the values) | 350,000 compounds, 1.6% hits | AID 720706, 2013;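 active means significant combined selectivity score with lowered wild-type GFP, culture density cut under 30%, mutant RFP and density less affected; inactive means any of these conditions unmet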; further: one replicate is shown; some compounds called inactive have numbers as strong as hits
MLL AF4-AF9 inh: inhibitors of AF4 peptide binding to AF9, primary screen, biochemical, AlphaScreen, biotin-AF4 peptide, FLAG-AF9, single point. Protein AF-9 (Homo sapiens), P42568. inhibition, % at 10 µM. 350,000 compounds, 0.47% hits. AID 651704, 2012;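 active means every replicate reaching a set inhibition limit, whatever the replicate mean, cut at about 25% in these data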;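 further: 0% = plate neutral control median and 100% = total signal loss; the record names both 10 and 1 µM as test concentration; the first replicate is given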
Target sequence (P42568 whole entry, looked up): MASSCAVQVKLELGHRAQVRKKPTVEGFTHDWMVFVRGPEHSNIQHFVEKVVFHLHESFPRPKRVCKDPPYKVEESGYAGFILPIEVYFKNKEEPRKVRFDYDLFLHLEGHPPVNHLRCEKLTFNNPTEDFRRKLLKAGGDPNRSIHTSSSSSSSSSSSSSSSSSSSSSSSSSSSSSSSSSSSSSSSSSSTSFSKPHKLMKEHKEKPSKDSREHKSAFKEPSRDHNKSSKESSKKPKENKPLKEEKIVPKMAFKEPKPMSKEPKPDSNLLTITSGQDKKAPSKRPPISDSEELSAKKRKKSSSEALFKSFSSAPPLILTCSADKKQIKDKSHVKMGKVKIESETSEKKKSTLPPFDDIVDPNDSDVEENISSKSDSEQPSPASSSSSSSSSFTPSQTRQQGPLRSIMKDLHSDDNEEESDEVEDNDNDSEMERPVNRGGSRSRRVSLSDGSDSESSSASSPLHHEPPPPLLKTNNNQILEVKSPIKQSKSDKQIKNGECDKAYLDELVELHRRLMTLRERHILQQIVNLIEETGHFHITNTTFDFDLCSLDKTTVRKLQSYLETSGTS
rRNA inh HTS OD600: further read-out of rRNA inh HTS, marked with its call; OD600 change, %; measured here: OD600 growth;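 optical density of the mix in the first replicate; 0 = DMSO median and -100 = no signal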
rRNA inh HTS RFP: second read-out of rRNA inh HTS, no call of its own (marks repeat the call); RFP signal change, %; measured here: RFP humanized mutant strains;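 first replicate; 0 = DMSO median and -100 = no signal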
Active calls of the source: *; i = inactive; nt = no result given; + = active, no number. Some of the compounds tested; rates above refer to the full screens.

SMILES	FGF22 binding	rRNA inh HTS	rRNA inh HTS OD600	rRNA inh HTS RFP	MLL AF4-AF9 inh
COc1ccc(CN(C)C[C@@H]2OCCCC[C@@H](C)Oc3ccc(NC(=O)Nc4ccc(F)cc4)cc3C(=O)N([C@H](C)CO)C[C@@H]2C)cc1	i	6	9	7.4	2.0
O=C(C[C@H]1C[C@@H]2c3cc(NC(=O)C4CCC4)ccc3O[C@@H]2[C@@H](CO)O1)NCCc1ccccc1	i	1	-2	-0.4	-2.5
C[C@@H]1CCCCO[C@@H](CN(C)C(=O)Nc2ccc3c(c2)OCO3)[C@H](C)CN([C@@H](C)CO)C(=O)c2cc(NC(=O)Nc3cccc4ccccc34)ccc2O1	i	3	11	-0.3	-1.7
COc1cccc(CC(=O)N2CCN(C(=O)C(=O)c3ccc(OC)c(OC)c3)CC2)c1	i	5	6	1.1	1.4
COCC#Cc1ccc([C@H]2[C@H](CO)N3CCCCN(C(=O)Nc4cc(F)ccc4F)C[C@@H]23)cc1	i	-13	-2	-0.4	0.7
COc1ccc(S(=O)(=O)Nc2ccc3c(c2)C(=O)N([C@@H](C)CO)C[C@H](C)[C@H](CN(C)Cc2ccc(C(=O)O)cc2)O3)cc1	i	4	6	-2.5	-11
C[C@@H]1CCCCO[C@H](CN(C)C(=O)CCC(F)(F)F)[C@H](C)CN([C@H](C)CO)C(=O)c2cc(NC(=O)CCC(F)(F)F)ccc2O1	i	0	-4	-2.5	-2.0
C[C@@H]1CN([C@@H](C)CO)C(=O)Cc2cc(NC(=O)c3ccncc3)ccc2O[C@@H]1CN(C)C	i	-4	6	-2.3	-0.6
CN(C(=O)c1cccc(NC(=O)Cc2ccc(NC(=O)C3CCCN(C(=O)C4CCCC4)C3)cc2)c1)C1CCC1 (centres undefined)	nt	3	7	-2.5	-1.2
N#Cc1ccc(-c2ccc3c(c2)[C@@H]2[C@@H](CCN2C(=O)c2ccccc2F)[C@H](CO)N3)cc1	i	-28	-34	4.5	-4.2
C[C@H]1CN([C@@H](C)CO)C(=O)c2cccc(NS(=O)(=O)c3ccccc3)c2O[C@@H]1CN(C)S(=O)(=O)c1cn(C)cn1	i	4	10	-0.8	-14
CN1c2ccc(-c3ccccc3F)cc2[C@@H]2[C@@H](CCN2C(=O)CN2CCOCC2)[C@H]1CO	i	-2	-1	-0.3	-0.1
COc1ccccc1-c1ccc2c(c1)[C@@H]1[C@@H](CCN1C(=O)C1CCOCC1)[C@H](CO)N2	i	5	18	-1.8	0.6
C[C@H](CO)N1C[C@H](C)[C@H](CN(C)C(=O)Nc2ccc3c(c2)OCCO3)OCc2cn(nn2)CCCC1=O	i	0	-4	-1.1	0.7
Cc1ccc(CN2C(=O)c3ccccc3C2c2nnnn2-c2c(C)cccc2C)cc1 (centres undefined)	i	-15	-23	4.2	1.8
C[C@@H]1CN([C@H](C)CO)C(=O)CCCn2cc(nn2)CO[C@H]1CN(C)Cc1ccc(Cl)c(Cl)c1	i	-3	-2	-1.4	0.9
Cc1noc(C)c1NC(=O)Nc1ccc2c(c1)C(=O)N([C@H](C)CO)C[C@@H](C)[C@@H](CN(C)S(=O)(=O)c1ccc(Cl)cc1)OCCCC[C@H](C)O2	i	1	-7	4.3	-0.8
CCNC(=O)C1(C)CCCN(Cc2csc(-c3ccc(Cl)cc3)n2)C1 (centres undefined)	i	-13	-46	0.3	3.5
C[C@@H]1CN([C@@H](C)CO)C(=O)c2cc(NC(=O)CCC(F)(F)F)ccc2O[C@H]1CN(C)Cc1ccc2c(c1)OCO2	i	2	5	-2.4	-5.3
COC(=O)c1ccc2nc(-c3ccc(F)cc3)c(Cc3cccc(Cl)c3)n2c1	i	-16	-5	11	-3.2
CO[C@@H]1CN(C)C(=O)c2ccc(NS(=O)(=O)c3ccccc3C)cc2OC[C@@H](C)NC[C@H]1C	i	0	-4	0.9	-2.0
CC(=O)N1[C@@H]2Cn3c(ccc(C4=CCCCC4)c3=O)[C@H]1[C@@H](C(=O)NCc1cc(F)cc(F)c1)[C@@H]2CO	i	-3	-17	2.3	1.5
COCC#Cc1ccc2c(c1)O[C@@H](CN(C)S(=O)(=O)c1ccc(F)cc1)[C@H](C)CN([C@@H](C)CO)S2(=O)=O	i	-1	-16	0.1	-1.5
COc1ccc(CN(C)C[C@H]2OCc3cn(nn3)CCCC(=O)N([C@@H](C)CO)C[C@@H]2C)cc1	i	-1	5	-1.8	11
CC1(C(=O)NCc2ccccc2)CN(S(C)(=O)=O)CC(=O)N1C1CCN(Cc2ccccc2)CC1 (centres undefined)	i	10	12	-1.1	3.2

Further structures.
SMILES	FGF22 binding	rRNA inh HTS	rRNA inh HTS OD600	rRNA inh HTS RFP	MLL AF4-AF9 inh
CN(C)CC#Cc1ccc([C@H]2[C@@H](CO)N3CCCCN(S(=O)(=O)c4ccccc4)C[C@@H]23)cc1	i	-2	-8	-3.2	3.7
CO[C@H]1CN(C)C(=O)c2cc(NC(=O)CC(F)(F)F)ccc2OC[C@@H](C)N(CC2CC2)C[C@@H]1C	i	3	13	-0.4	-3.5
Cc1noc(C)c1NC(=O)NCC[C@@H]1CC[C@H](NC(=O)c2ccncc2)[C@H](CO)O1	i	-1	2	-1.8	3.6
CC(=O)c1ccc(OCc2nnn(CC(=O)NS(=O)(=O)Cc3ccccc3)c2-c2ccccc2)cc1	i	1	1	-2.8	-0.9
O=C(NCc1ccccc1)[C@H]1CCCN1C(=O)[C@H]1CCCN1C(=O)c1cc(F)cc(F)c1	i	10	4	-0.4	-3.2
CCC(=O)Nc1ccc2c(c1)C(=O)N(C)[C@H]1CC[C@H](CC(=O)NCc3ccc(OC)cc3)O[C@@H]1CO2	i	-2	2	-3.7	0.3
Cc1ccc(S(=O)(=O)NCC[C@@H]2CC[C@@H](NC(=O)c3ccccn3)[C@@H](CO)O2)cc1	i	1	-1	-3.4	1.1
COc1ccc(CNC(=O)C[C@@H]2CC[C@@H]3[C@H](COc4ccc(NC(=O)C5CC5)cc4C(=O)N3C)O2)cc1	i	2	4	-2.0	-0.3
O=C(c1cnccn1)N1CC[C@H]2[C@H](CO)Nc3ccc(-c4ccccc4)cc3[C@H]21	i	-1	-1	0.9	2.5
C[C@@H]1CN([C@@H](C)CO)C(=O)c2cc(NC(=O)Cc3cn(C)c4ccccc34)ccc2O[C@@H]1CN(C)CC1CCCCC1	i	-1	-4	7.3	20
C[C@@H]1CCCCO[C@@H](CN(C)S(=O)(=O)c2ccccc2)[C@@H](C)CN([C@H](C)CO)C(=O)c2cc(NC(=O)CCC(F)(F)F)ccc2O1	+	1	2	-1.5	-6.3
O=C(C[C@H]1C[C@@H]2c3cc(NC(=O)C4CCOCC4)ccc3O[C@@H]2[C@H](CO)O1)NCCN1CCCCC1	i	5	17	-2.5	-10
CNC(=O)C[C@@H]1CC[C@H]2[C@@H](COc3ccc(NS(=O)(=O)c4ccccc4C)cc3C(=O)N2C)O1	i	1	1	-2.1	0.4
C[C@@H]1CN([C@H](C)CO)C(=O)Cc2cc(NC(=O)Cc3cn(C)c4ccccc34)ccc2O[C@@H]1CN(C)Cc1ccncc1	i	-5	-7	-0.3	2.8
Cc1noc(C)c1NC(=O)N(C)C[C@@H]1OCCCC[C@H](C)Oc2ccc(NC(=O)C3CCCCC3)cc2C(=O)N([C@H](C)CO)C[C@@H]1C	i	1	7	1.3	-0.9
CS(=O)(=O)N1[C@@H]2c3ccc(C4=CCCC4)c(=O)n3C[C@@H]2[C@@H](CO)[C@@H]1C(=O)NCCc1ccncc1	i	0	-4	0.2	-1.2
CCN(C(=O)CN1C(=O)NC2(CCC(C)CC2)C1=O)C1CCCCC1 (centres undefined)	i	2	3	-3.2	3.1
C[C@H]1CCC/C=C/[C@@H]2C[C@H](O)C[C@H]2[C@H](O)[C@H](S(=O)c2ccc(O)cc2)CC(=O)O1 (some centres undefined)	i	-17	-8	1.5	7.9
CCOC(=O)N1CCN(C(=O)C[C@@H]2C[C@@]3(C(=O)OC)CC(C)(C)CC=C3N(CCc3ccc(OC)c(OC)c3)C2=O)CC1	i	6	4	2.5	0.5
CCCS(=O)(=O)NC(=O)C1(C)CCCN(C(=O)c2ccc3ccccc3n2)C1 (centres undefined)	i	3	15	-3.9	-1.9
CNC[C@@H]1Oc2c(NC(=O)C3CCOCC3)cccc2C(=O)N([C@H](C)CO)C[C@H]1C	i	1	1	-0.9	-19
O=C(C[C@H]1C=C[C@H](NC(=O)C2CCC2)[C@@H](CO)O1)NCC1CC1	i	-1	3	-3.3	-1.9
C[C@H]1CN([C@@H](C)CO)C(=O)c2ccccc2-c2ccccc2CO[C@H]1CN(C)C(=O)[C@H]1CCCN1C	i	0	1	-1.0	-1.1
COCc1cn(CC[C@H]2CC[C@@H](NC(=O)c3ccc(F)cc3)[C@H](CO)O2)nn1	i	4	0	0.7	1.0
C[C@H](CO)N1C[C@H](C)[C@@H](CN(C)C(=O)Nc2cccc3ccccc23)OCCCC[C@H](C)Oc2ccc(NC(=O)c3ccccc3)cc2C1=O	i	3	11	-2.3	0.4

Next entries:
SMILES	FGF22 binding	rRNA inh HTS	rRNA inh HTS OD600	rRNA inh HTS RFP	MLL AF4-AF9 inh
O=C(C[C@H]1C[C@@H]2c3cc(NS(=O)(=O)c4ccc(F)cc4)ccc3O[C@@H]2[C@H](CO)O1)NCCN1CCCCC1	i	4	1	0.7	-6.9
COc1ccc(S(=O)(=O)N(C)C[C@@H]2Oc3cc(C#CC4CCCCC4)ccc3S(=O)(=O)N([C@@H](C)CO)C[C@H]2C)cc1	i	4	14	-1.6	3.1
O=C(c1cccnc1)N1CC2(C1)[C@H](c1ccccc1)[C@@H](CO)N2Cc1ccc(Cl)cc1	i	3	3	1.6	13
COc1cccc(C#Cc2cnc3c(c2)C(=O)N([C@H](C)CO)C[C@@H](C)[C@H](CN(C)C(=O)C2CC2)O3)c1	i	2	-7	3.0	0.3
C[C@H]1CN([C@@H](C)CO)S(=O)(=O)c2ccc(C3=CCCC3)cc2O[C@@H]1CN(C)C(=O)CN(C)C	i	5	8	-0.1	-0.8
CCC(=O)N(C)C[C@@H]1Oc2cc(C3=CCCC3)ccc2S(=O)(=O)N([C@H](C)CO)C[C@H]1C	i	4	-6	-3.0	-5.2
C[C@@H]1CCCCO[C@H](CN(C)S(C)(=O)=O)[C@@H](C)CN([C@H](C)CO)C(=O)c2cc(NC(=O)C3CCCCC3)ccc2O1	i	2	5	-1.2	11
CCC(=O)N(C)C[C@H]1Oc2cc(C#C[C@H](C)O)ccc2S(=O)(=O)N([C@H](C)CO)C[C@@H]1C	i	2	8	-4.1	-3.5
CCCNC(=O)N[C@@H]1CC[C@@H](CC(=O)N2CCN(C)CC2)O[C@H]1CO	i	1	1	-2.6	2.6
CCC(=O)N1[C@H](CNC(=O)COC)[C@H](c2ccc(-c3ccccc3)cc2)[C@@H]1CO	i	-3	-3	-2.7	1.0
CC1(C(=O)NS(=O)(=O)c2cccc(OC(F)F)c2)CCN1C(=O)Cc1ccsc1 (centres undefined)	i	10	16	-0.1	0.3
C[C@@H]1CN([C@H](C)CO)C(=O)c2cc(-c3cccc(F)c3)cnc2O[C@H]1CN(C)Cc1ccccn1	i	3	15	2.5	-1.8
CO[C@@H]1CN(C)C(=O)c2cc(NC(=O)C3CCC3)ccc2OC[C@H](C)N(CC2CCCCC2)C[C@@H]1C	i	4	0	2.5	0.7
C[C@@H]1CN([C@H](C)CO)C(=O)c2cc(C#CC(C)(C)O)cnc2O[C@H]1CN(C)C(=O)C1CC1	i	8	3	-1.2	-2.3
Cc1ccc(S(=O)(=O)Nc2ccccc2N=Cc2ccc([N+](=O)[O-])cc2[N+](=O)[O-])cc1	i	17	12	-2.4	1.4

Quoted from the entries so far (eight entries):
SMILES	FGF22 binding	rRNA inh HTS	rRNA inh HTS OD600	rRNA inh HTS RFP	MLL AF4-AF9 inh
COc1ccc(S(=O)(=O)N(C)C[C@@H]2Oc3cc(C#CC4CCCCC4)ccc3S(=O)(=O)N([C@@H](C)CO)C[C@H]2C)cc1	i	4	14	-1.6	3.1
O=C(c1cccnc1)N1CC2(C1)[C@H](c1ccccc1)[C@@H](CO)N2Cc1ccc(Cl)cc1	i	3	3	1.6	13
COc1cccc(C#Cc2cnc3c(c2)C(=O)N([C@H](C)CO)C[C@@H](C)[C@H](CN(C)C(=O)C2CC2)O3)c1	i	2	-7	3.0	0.3
C[C@H]1CN([C@@H](C)CO)S(=O)(=O)c2ccc(C3=CCCC3)cc2O[C@@H]1CN(C)C(=O)CN(C)C	i	5	8	-0.1	-0.8
CCC(=O)N(C)C[C@@H]1Oc2cc(C3=CCCC3)ccc2S(=O)(=O)N([C@H](C)CO)C[C@H]1C	i	4	-6	-3.0	-5.2
C[C@@H]1CCCCO[C@H](CN(C)S(C)(=O)=O)[C@@H](C)CN([C@H](C)CO)C(=O)c2cc(NC(=O)C3CCCCC3)ccc2O1	i	2	5	-1.2	11
CCC(=O)N(C)C[C@H]1Oc2cc(C#C[C@H](C)O)ccc2S(=O)(=O)N([C@H](C)CO)C[C@@H]1C	i	2	8	-4.1	-3.5
CCCNC(=O)N[C@@H]1CC[C@@H](CC(=O)N2CCN(C)CC2)O[C@H]1CO	i	1	1	-2.6	2.6

Screening data as filed in PubChem.
